# Screens as filed in PubChem BioAssay.
# AT treatment = qHTS Assay for Identifying a Potential Treatment of Ataxia-Telangiectasia; […] A-T fibroblasts, KAP-1 phosphorylation AlphaLISA; neocarzinostatin DNA damage 30 min before lysis; Potency, µM (doses to about 57.5 µM), without a hit: at the highest dose activation, actives largely listed as activators; 320,000 tested, 0.19% active; further: potency means the concentration at half of the fitted maximal effect; % of control where 0% means no effect; nearly all actives have a fitted effect of over 45% in size
#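 hTERT-immortalized A-T patient fibroblasts ([…]), 500 cells/well in OPTI-MEM, 1% FBS, got compounds for 60 min, then NCS for 30 min at 37C. Lysates were then assayed for phospho-KAP-1 by AlphaLISA (anti-pKAP1 donor, anti-KAP1 acceptor beads), 6 hr at 25C.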
# USP2a inh = qHTS Assay for Inhibitors of Ubiquitin-specific Protease USP2a Using CHOP2 as the Reporter | Ubiquitin carboxyl-terminal hydrolase 2 (Homo sapiens), O75604 | USP2 core, Ub-CHOP2 coupled fluorogenic reporter, 485/531 | Potency, µM (highest dose often 38.3 µM), without a hit: at the top dose activity change, negative = inhibition, usual class: inhibitors | 330,000 tested, 0.01% active | AID 463254, 2010;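 further: potency means the concentration at half of the fitted maximal effect; plate controls were DMSO wells for no effect and full inhibition by NEM control for full effect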
#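 Cell-free coupled assay: 10nM USP2 core preincubated 30min RT with compound in Tris-HCl pH 8.0/CaCl2/CHAPS buffer, then 25nM Ub-CHOP2 and 25nM reporter substrate; fluorescence (Ex 485/Em 531) read after 60min RT, normalized to NEM inhibition, concentration-response curves fitted.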
# ELG1 repair inh = qHTS screen for small molecules that inhibit ELG1-dependent DNA repair in human embryonic kidney (HEK293T) cells expressing luciferase-tagged ELG1; HEK293T ELG1-luciferase reporter, luminescence, 16 h; DNA damage induced by 5-fluorouridine; 330,000 tested, 2.3% active; Potency, µM (highest dose often 46.1 µM), for the others: top-dose activity change, negative = inhibition, usual class: inhibitors; further: potency means the concentration at half of the fitted maximal effect; on the % scale 0 is the no-effect control and ±100 the full control effect; nearly all actives have a fitted effect of over 55% in size
#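 Cells (2,000 per well) received 5-fluorouridine plus test compound or DMSO and were incubated 16 hr at 37 °C, 5% CO2. Luciferase activity was read by luminescence 30 min after ONE-Glo addition; signal suppression marked inhibition of damage-induced ELG1 function.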
# TRPV1 agonist = HTS Assay for Compounds that Act as Agonists of the Vanilloid Receptor 1; Transient receptor potential cation channel subfamily V member 1 (Homo sapiens), Q8NER1; TRPV1-expressing cells, Fluo-8 calcium influx, agonist mode; activation, % at 8.33 µM; 320,000 tested, 0.19% active; AID 540275, 2011; in the data active means activation above about 80%; inconclusive means between about 30% and that limit; further: 0% is about no effect
#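 TRPV1-expressing cells were cultured overnight at 35.5C and loaded with Fluo-8 calcium dye for 40 to 90 min at room temperature. After a 10 s baseline, compound was added and calcium influx was read kinetically for 3 min (ex 480/em 520 nm).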
# Eya2 phos inh = qHTS Assay for Inhibitors of the Phosphatase Activity of Eya2; 330,000 tested, 0.006% active; recombinant Eya2, OMFP fluorescence dephosphorylation (OMFP is methylfluorescein phosphate); AID 488837, 2010; Potency, µM (series often up to 76.9 µM), for the others: top-dose activity, negative = inhibition, actives largely listed as inhibitors; Protein phosphatase EYA2 (Homo sapiens), O00167; further: potency means the concentration at half of the fitted maximal effect; on the % scale 0 is the no-effect control and ±100 the full control effect
#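 Eya2 protein (added as 0.2 uM solution) was preincubated with compound for 10 min at ambient temperature in 50 mM HEPES pH 7.5, 50 mM NaCl, 5 uM MgCl2, 0.05% BSA, 1 mM DTT. OMFP (added at 50 uM) then reacted 10 min; fluorescence read at 485/525 nm.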
# TSHR antagonist = Antagonists of the Thyroid Stimulating Hormone Receptor: HTS campaign; Thyrotropin receptor (Homo sapiens), P16473; TSHR-expressing cells, TSH-stimulated cAMP HTRF, 2 h; stronger effect = lower value; activity change, negative = inhibition, % at 11.5 µM; 330,000 tested, 0.2% active; AID 504810, 2011;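 active means activity change below a set negative limit, meaning inhibition stronger than a set level, cut at about -70% in these data; inconclusive means activity change between two set negative limits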; further: on the % scale 0 is the no-effect control and ±100 the full control effect
# Target sequence (P16473 whole entry, looked up): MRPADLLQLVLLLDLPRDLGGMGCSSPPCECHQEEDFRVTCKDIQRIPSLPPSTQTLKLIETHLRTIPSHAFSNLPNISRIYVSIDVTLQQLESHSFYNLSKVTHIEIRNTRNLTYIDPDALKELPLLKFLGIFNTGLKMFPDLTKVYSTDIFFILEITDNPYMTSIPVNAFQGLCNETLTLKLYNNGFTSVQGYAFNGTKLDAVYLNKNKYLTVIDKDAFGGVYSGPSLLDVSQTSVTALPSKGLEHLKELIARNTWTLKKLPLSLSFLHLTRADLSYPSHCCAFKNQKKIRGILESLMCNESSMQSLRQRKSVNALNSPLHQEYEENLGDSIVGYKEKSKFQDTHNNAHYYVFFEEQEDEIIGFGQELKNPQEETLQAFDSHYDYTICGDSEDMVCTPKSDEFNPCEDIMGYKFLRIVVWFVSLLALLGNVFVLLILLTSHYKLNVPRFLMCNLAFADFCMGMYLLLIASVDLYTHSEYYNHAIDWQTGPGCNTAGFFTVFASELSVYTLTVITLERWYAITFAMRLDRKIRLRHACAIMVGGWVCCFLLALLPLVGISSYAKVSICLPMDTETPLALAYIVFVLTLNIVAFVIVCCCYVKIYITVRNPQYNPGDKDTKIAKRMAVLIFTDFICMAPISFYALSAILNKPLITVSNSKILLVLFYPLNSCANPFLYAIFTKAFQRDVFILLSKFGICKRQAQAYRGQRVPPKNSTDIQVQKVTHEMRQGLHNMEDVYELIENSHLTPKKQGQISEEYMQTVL
#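 TSHR-expressing cells, 200/well, pre-treated with compound, then stimulated with EC80 TSH (4nM final) for 2 hours at 37 deg C. cAMP measured by competitive HTRF: anti-cAMP cryptate antibody in lysis buffer plus cAMP-d2, read after 30 minutes at room temperature.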
# TCR activator = Activators of T cell receptors: qHTS campaign; 330,000 tested, under 10 active; primary human leukocytes, anti-CD3, IL-2 HTRF, 48 h; Potency, µM (highest dose often 9.22 µM), without a hit: top-dose activation of IL-2 secretion, actives largely listed as activators; AID 504894, 2011; further: % of control where 0% means no effect
#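 IL-2 produced over 48 hr by a-CD3 bead-stimulated primary human leukocytes exposed to compounds was detected with a homogeneous time-resolved FRET immunoassay, 665nm acceptor signal after 320nm excitation.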
# Mito fusion yeast = qHTS Assay for Small Molecule Inhibitors of Mitochondrial Division or Activators of Mitochondrial Fusion; S. cerevisiae fusion-defective mutant growth rescue, CellTiterGlo 48 h; Potency, µM (top dose mostly 46.1 µM), for inactives: at the highest dose growth rescue (activation), actives largely listed as activators; 320,000 tested, 0.23% active;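 further: potency means the concentration at half of the fitted maximal effect; % of control where 0% means no effect; nearly all actives have a fitted effect of over 45% in size; temperature-sensitive fusion mutants such as fzo1-1 at 37 °C on non-fermentable ethanol glycerol medium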
#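 Yeast fusion mutant, YPEG (non-fermentable carbon), compound, 48 h at 37C non-permissive; CellTiterGlo added, 10 min RT, luminescence read. Rescued growth = division inhibition.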
# Numbers without * were called inactive; ? = inconclusive; nt = no result given; & = joins results of further samples; ! = not confirmed by another sample; [ ] = another dose, or the depositor's remark. Unless noted, the call rests on the fitted dose curve; in most records, active means well fitted curve in the direction sought with a large enough effect; inconclusive means small, poorly fitted or top-dose-only effect, or another doubt; inactive means no such curve, though single readings can be large; an effect the other way counts as inactive or inconclusive.
SMILES,AT treatment,USP2a inh,ELG1 repair inh,TRPV1 agonist,Eya2 phos inh,TSHR antagonist,TCR activator,Mito fusion yeast
Cc1ccc(-c2cc(C(F)F)nc(N3CCOCC3)n2)cc1,8%,-1%,-21%,18,-4%,-3,2%,3%
O=C(CCC1CCCN(C(=O)c2cccc(F)c2)C1)N1CCN(c2ccccn2)CC1 (stereo not given),3%,1%,-13%,-5,2%,6,3%,-1%
CCCn1c(=O)[nH]c(=O)c2[nH]cnc21,-4%,1%,0%,1,5%&-2%,-13&-3,3%,-1%&-3%
CC1(C)[C@@H](O)CC[C@]2(C)[C@H]3C(=O)C=C4[C@@H]5C[C@@](C)(C(=O)O)CC[C@]5(C)CC[C@@]4(C)[C@]3(C)CC[C@@H]12,-17%,-4%,5%,1,-1%,-1,-14%,2%
Cc1ccc(-c2nc3[nH]c(=O)cc(NC(=O)C(C)C)n3n2)cc1,-5%,2%,-7%,-5,6%,1,-1%,-2%
Cc1cnc(CN(C)C(=O)c2ccc3oc(Cc4ccccc4)nc3c2)[nH]1,8%,-1%,-10%,4,-4%,-2,-1%,-4%
CC(C(=O)N1CCc2ccccc2C1)N1C(=O)c2ccccc2C1=O (stereo not given),-3%,-2%,15%,0,-4%,-5,-3%,3%
O=C(NC1=NCCS1)c1cc(-c2ccc(-c3ccccc3)cc2)nc2ccccc12,4%,7%,?,2,-4%,-22,1%,-1%
Cc1ccccc1NC(=O)Nc1ccccc1N1CCCCC1,11%,-2%,18µM*,1,-8%,-10,3%,?
C/C(=N\NC(=O)CCn1nc(C)cc1C)C(C)(C)C,-1%,1%,-1%,1,1%,10,-4%[46.1 µM],-9%
COc1ccccc1C(=O)Nc1ccc2ccccc2c1,nt,nt,nt,nt,nt,nt,3%,nt
Cc1cccc(C(=O)OC2CCN(C)CC2)c1,-7%,0%,-5%,-2,2%,-3,-5%,-8%
Cn1c(Nn2cnnc2)nc2ccccc21,-5%,5%,8%,-1,1%,-9,-1%,-7%
NC(=Nc1ccccc1)Nc1ccccc1,-1%,3%,-1%,29,-16%,-5,0%,-6%
COc1ccc2c(c1)c(CC(=O)O)c(C)n2C(=O)c1ccc(Cl)cc1,7%,2%,-4%,3,22%&-6%,-19&-7,-3%,4%&0%
Cc1ccc(CC2CC(=O)N(c3ncccn3)C2=O)cc1 (stereo not given),-4%,1%,?,3,-2%,-4,0%,-10%
Nc1c(SCCC(=O)O)ccc2c1C(=O)c1ccccc1C2=O,0%,-1%,?,-3,-18%,8,4%,7%
CCc1nc2ccc(C(=O)N3CCN(c4cc(C)ccc4C)CC3)cc2nc1CC,6%,-10%,?,-3,1%,-3,0%,-4%
CCn1c2ccccc2c2cc(NC(=O)C(C)C)ccc21,1%,0%,?,?,-3%,-3,2%,-1%
CN1CCC[C@@H]1CCO[C@](C)(c1ccccc1)c1ccc(Cl)cc1,nt,nt,nt,nt,nt,nt,0%,nt

# An excerpt from the list above, as a working copy:
SMILES,AT treatment,USP2a inh,ELG1 repair inh,TRPV1 agonist,Eya2 phos inh,TSHR antagonist,TCR activator,Mito fusion yeast
Cc1ccc(-c2cc(C(F)F)nc(N3CCOCC3)n2)cc1,8%,-1%,-21%,18,-4%,-3,2%,3%
O=C(CCC1CCCN(C(=O)c2cccc(F)c2)C1)N1CCN(c2ccccn2)CC1 (stereo not given),3%,1%,-13%,-5,2%,6,3%,-1%
CCCn1c(=O)[nH]c(=O)c2[nH]cnc21,-4%,1%,0%,1,5%&-2%,-13&-3,3%,-1%&-3%

# 5 records picked at random from the list so far:
SMILES,AT treatment,USP2a inh,ELG1 repair inh,TRPV1 agonist,Eya2 phos inh,TSHR antagonist,TCR activator,Mito fusion yeast
Cc1ccc(-c2nc3[nH]c(=O)cc(NC(=O)C(C)C)n3n2)cc1,-5%,2%,-7%,-5,6%,1,-1%,-2%
O=C(CCC1CCCN(C(=O)c2cccc(F)c2)C1)N1CCN(c2ccccn2)CC1 (stereo not given),3%,1%,-13%,-5,2%,6,3%,-1%
Cc1cnc(CN(C)C(=O)c2ccc3oc(Cc4ccccc4)nc3c2)[nH]1,8%,-1%,-10%,4,-4%,-2,-1%,-4%
O=C(NC1=NCCS1)c1cc(-c2ccc(-c3ccccc3)cc2)nc2ccccc12,4%,7%,?,2,-4%,-22,1%,-1%
CCCn1c(=O)[nH]c(=O)c2[nH]cnc21,-4%,1%,0%,1,5%&-2%,-13&-3,3%,-1%&-3%

# Continued.
SMILES,AT treatment,USP2a inh,ELG1 repair inh,TRPV1 agonist,Eya2 phos inh,TSHR antagonist,TCR activator,Mito fusion yeast
COc1cccc(OC)c1C(=O)N[C@@H]1C(=O)N2[C@@H]1SC(C)(C)[C@@H]2C(=O)O,nt,nt,nt,nt,nt,nt,-6%,nt
O=C(CCCN1CCC(O)(c2ccc(Br)cc2)CC1)c1ccc(F)cc1,0%,0%,-16%,1,17%,7,-3%,25%
COc1cc2ccccc2cc1C(=O)Nc1ccc(Cc2ccncc2)cc1,11%,-12%,0%,-1,3%,-23,1%,?
CN1CCC(=C2c3ccccc3C=Cc3ccccc32)CC1,14%,0%,1%,3,-7%&3%,-8&24,-1%,-4%&-4%
Cn1c(CCN2CCN(c3ccccc3)CC2)nc2cc(NC(=O)c3ccco3)ccc21,3%,-1%,-21%,nt,15%,-5,-1%,0%
CC(=O)c1ccc(NC(=O)NNS(=O)(=O)c2ccc([N+](=O)[O-])cc2)cc1,-2%,2%,-3%,19,3%,23,2%,-1%
CC1(C)C([N+](=O)[O-])C(c2ccccc2O)NC(c2ccccc2O)C1[N+](=O)[O-] (stereo not given),4%,10%,1%,3,4%,-14,-2%,3%
CCOC(=O)C1=C[C@]2(CC)CCCN3CCc4c(n1c1ccccc41)[C@@H]32,3%,2%,?,30,4%&-8%,-29&-13,-12%,?
O=C(CCCN1CCC(O)(c2cccc(C(F)(F)F)c2)CC1)c1ccc(F)cc1,1%,0%,?,-2,2%&-24%,-20&0,0%,23µM*!
Cc1ccccc1CNc1ccc(C(CC(N)=O)NC(=O)c2ccccc2)cc1[N+](=O)[O-] (stereo not given),-23%,-3%,?,2,-17%,-3,-8%,0%
Cc1ccc(S(=O)(=O)N(c2nc(NC(C)C)nc(NC(C)C)n2)n2cnnc2)cc1,-1%,2%,-3%,3,-8%,2,-1%[46.1 µM],-2%
O=S(=O)(Nc1ccc(S(=O)(=O)N2CCCCC2)cc1)c1cccs1,1%,-1%,0%,2,15%,-7,-2%,4%
C[C@]12CC[C@@H]3c4ccc(O)cc4CC[C@H]3[C@@H]1CC[C@@H]2O,-5%,-1%,5%,25,-3%&1%,-13&-17,7%,23µM*!
CC1CCCC(C)N1C(=O)Cn1cc(/C=C2/C(=O)Nc3ccccc32)c2ccccc21 (stereo not given),-8%,1%,?,-1,0%,36,1%,29%
O=C(CCN1CCN(c2ccccc2)CC1)c1ccc(Cl)cc1,5%,3%,-1%,25,10%,17,-1%,0%
Nc1nc(=O)n(C2CC(O)C(CO)O2)cc1F (stereo not given),nt,nt,nt,nt,nt,nt,-2%,nt
O=c1c2cc(-c3ccccc3)sc2nc2n1N=C(c1cccs1)CS2,1%,6%,?,-2,-2%,-7,0%,3%
CN1C(c2ccccc2)CC(=NO)CC1c1ccccc1 (stereo not given),5%,2%,1%,22,?,-1,-13%,-15%
COc1ccc([C@H]2CC(=O)C=C(/C=C/c3ccccc3)C2)cc1,3%,2%,?,22,-4%,9,2%,11%
O=C(Nc1nc2ccc(Cl)cc2s1)C1CCCO1 (stereo not given),nt,0%,?,17,-3%,-11,-2%,1%
O=C(c1ccc(Br)cc1)c1cc(-c2ccccn2)c(N2CCOCC2)s1,4%,-1%,-7%,9,13%,6,1%,1%
COc1ccc(CCN(C)C(=O)c2c(C)nn(CC(C)C)c2Cl)cc1OC,5%,-2%,-5%,18,-4%,2,-2%,1%
Cc1ccccc1NC(=S)N(CCCN1CCOCC1)Cc1cccnc1,0%,1%,0%,1,12%,-12,1%,11%
COc1cc(NS(C)(=O)=O)c(OC)cc1NC(=O)c1cccc(F)c1,1%,-1%,1%,0,2%,-1,-1%,1%

# The list is partial; the hit share may differ from the screen's.
